eIF4H FP inh – human eIF4H binding inhibitors, primary screen, translation initiation inhibitor project, biochemical, uHTS, fluorescence polarization; Eukaryotic translation initiation factor 4H (Homo sapiens), Q15056; eIF4H fluorescence polarization binding assay; inhibition, % at 35 µM; 290,000 compounds, 0.94% hits; AID 2012, 2009;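 active = 50% or more with normal probe brightness, or confirmed in later tests; inconclusive = above 50% with abnormal brightness, or retests that disagree; inactive = below 50% or failed in later tests; about a fifth of its hits are not listed in these tables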;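 also: calls also rest on retests at 20 µM and on dose response follow-up; 0% = protein and probe with vehicle and 100% = probe without protein; strong numbers were not always called active; many hits fall short of the cut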
PABP FP inh – PABP poly(A) RNA binding inhibitors, primary screen, biochemical, fluorescence polarization, uHTS. Polyadenylate-binding protein 1 (Homo sapiens), P11940. inhibition, % at 35 µM. 290,000 compounds, 1% hits;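 active = 50% or more with normal probe brightness, or confirmed in later tests; inconclusive = above 50% with abnormal brightness, or retests that disagree; inactive = below 50% or failed in later tests; about a fifth of its hits are not listed in these tables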;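 also: calls also rest on retests at 20 µM and on dose response follow-up; controls were probe without protein and protein plus probe with vehicle; some compounds called inactive have numbers as strong as hits; many hits fall short of the cut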
HIV Env fusion – inhibitors of HIV-1 Env-driven cell-cell fusion, primary screen, HeLa-JRFL effector, CEM21 target cells, luciferase. inhibition, % at 12.3 µM. AID 651610, 2012. 360,000 compounds, 1.1% hits;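 active = mean replicate inhibition score of at least 50 and every replicate individually at or above 50; inconclusive = only one of the two criteria met; inactive = mean below 50 and not all replicates reaching 50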;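 also: 0% = plate neutral controls and 100% = maraviroc near 300 nM; one replicate is shown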
Rce1 inhib – yeast Rce1p protease inhibitors, primary screen, biochemical, fluorescence, cell-free homogeneous. yeast membranes, quenched prenylated peptide cleavage fluorescence. calls only. CAAX prenyl protease 2 (Saccharomyces cerevisiae (strain ATCC 204508 / S288c)), Q03530. 290,000 compounds, 0.27% hits;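 active = fall in fluorescence gain of 50% or more versus controls, with final raw signal at or below 3038400; inconclusive = same 50% fall but final raw signal above 3038400; inactive = fall in fluorescence gain under 50%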;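 also: plate controls were neutral control wells for no effect and wells lacking membranes for full effect; tested at 10 µM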
Target sequence (Q03530 whole entry, looked up): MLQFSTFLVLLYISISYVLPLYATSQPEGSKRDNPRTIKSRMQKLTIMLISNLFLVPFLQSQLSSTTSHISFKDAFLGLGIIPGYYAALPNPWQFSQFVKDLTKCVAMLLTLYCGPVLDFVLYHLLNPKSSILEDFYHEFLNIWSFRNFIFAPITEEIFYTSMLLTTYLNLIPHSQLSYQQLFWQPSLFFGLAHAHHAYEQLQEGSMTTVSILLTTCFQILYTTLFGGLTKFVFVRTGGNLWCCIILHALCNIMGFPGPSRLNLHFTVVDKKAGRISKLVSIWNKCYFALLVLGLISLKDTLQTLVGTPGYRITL
CSC inhib – cancer stem cell viability inhibitors, primary screen, luminescence; inhibition, % at 7.5 µM; cancer stem cell-like cells viability; 300,000 compounds, 1.1% hits;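 active = mean at 75% or more and at least half the replicates too; inconclusive = mean and replicates disagree; tested in HMLE shEcad cells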;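 also: 0% = median of negative and 100% = median of positive control wells; the first replicate is given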
MT1-MMP act inh – blockers of MT1-MMP proenzyme processing, primary screen, HT1080 RFP-PRO-GFP cells, GFP/RFP fluorescence | GFP/RFP ratio change, % at 20 µM | GFP/RFP ratio fluorescence, overnight; percent of plate control window, DMSO zero | Matrix metalloproteinase-14 (Homo sapiens), P50281 | AID 651647, 2012 | 360,000 compounds, 0.061% hits;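 active = GFP/RFP ratio change of at least 30% with cell ATP level not reduced by more than half and red fluorescence within 50% of control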; also: strong numbers were not always called active
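Material – HT1080 RFP-PRO-GFP cells · Control set – DMSO wells and RFP-L50D-GFP cells · Incubation – overnight cell settling, then overnight compound exposure, 37 °C, 5% CO2 · Compound dosing – single-point 20 µM compound, 1% DMSO · Read-out – GFP/RFP fluorescence ratio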
UUG fidelity – modulators of yeast start codon fidelity, primary screen, whole organism, S. cerevisiae, single point, plate reader; S. cerevisiae UUG-firefly luciferase reporter, luminescence/redox ratio; activity score, % at 18.7 µM; 350,000 compounds, 0.13% hits;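 active = replicate mean at a twofold rise or more, about +100% in these data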;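 also: firefly luciferase made from a UUG start codon reports start codon fidelity; reporter light over untreated wells divided by growth signal over untreated wells; some hits fall short of that in this replicate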
eIF4H FP inh retest – also measured in eIF4H FP inh; calls as there; inhibition, %; compound at 20 µM; confirmation average;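 mean of two retest wells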
PABP FP inh retest – also measured in PABP FP inh; calls as there; inhibition, %; compound at 20 µM; confirmation repeats;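 mean of two retest wells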
MT1-MMP act inh RFP – second read-out of MT1-MMP act inh, no call of its own (marks repeat the call); RFP signal change, %; measured here: RFP expression control read;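 0 = vehicle wells; hits needed this value within 50% of zero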
Numbers without * were called inactive; i = inactive; ? = inconclusive; . = no result given; & = joins results of further samples; [ ] = dose if it differs, or a comment.

SMILES	eIF4H FP inh	PABP FP inh	HIV Env fusion	Rce1 inhib	CSC inhib	MT1-MMP act inh	MT1-MMP act inh RFP	UUG fidelity	others
CC(C)c1ccccc1NC(=O)COC(=O)CCN1C(=O)/C(=C\C=C\c2ccccc2)SC1=S	-3	-8	11	i	5	6	8	.
CC(C)n1c(=O)c2c(O)cc(=O)oc2c2ccccc21	35	20	13	i	-4	-9	6	-6
CC1(Cc2ccc(Cl)c(Cl)c2)C(=O)Nc2ccc(S(=O)(=O)NC3CCCCC3)cc21 (centres undefined)	.	.	57*	.	.	-21	-20	-6
COC(=O)[C@]1(C)N[C@H](CN(C)C(=O)Nc2ccc(OC)cc2)[C@@H]2C(=O)N(Cc3ccccc3)C(=O)[C@@H]21	.	.	?	.	.	1	7	-14
COC(=O)c1ccc2nc(-c3cccc(Br)c3)c(Cc3ccsc3)n2c1	.	.	14	.	.	-7	4	0
CC(C)(C)S(=O)(=O)c1ccc2nc3c(n2c1)CCCC3	3	0	-5	.	-14	0	13	-11
Cc1nc(-c2ccc(S(=O)(=O)N3CCN(Cc4ccccc4)CC3)s2)cs1	-13	-8	12	i	-1	3	-14	-11
Cc1cc(C(C)(C)C)cc(S(=O)(=O)Nc2ccc(C(=O)O)cc2)c1C	-1	-3	15	i	3	2	0	2
CCOC(=O)c1c(C)[nH]c(C(=O)OCCOc2ccc(Cl)cc2)c1C	-2	2	2	.	-5	2	3	-17
O=C1NN(c2ccc(Cl)c(Cl)c2)C(=O)/C1=C/c1cccc(OC(=O)c2cccs2)c1	82*	56*	.	i	45	.	.	.
COc1ccc(OC)c(Nc2nc(-c3sc(NC(=O)CC(C)C)nc3C)cs2)c1	1	1	-32	i	54	1	-2	-19
Cc1ccc(NC(=O)CCCc2c[nH]c3ccccc23)nc1	-19	-9	13	i	1	3	3	-8
CC(C)(CNS(=O)(=O)c1ccc(F)cc1)CNS(=O)(=O)c1ccc(F)cc1	7	-3	11	i	-7	-2	-2	-2
CCN(CC)S(=O)(=O)c1ccc(C)c(NC(=O)Cn2cnc3cc([N+](=O)[O-])ccc3c2=O)c1	9	-10	7	i	4	6	0	-5
C[C@@H]1CN([C@@H](C)CO)C(=O)CCCn2cc(nn2)CO[C@H]1CN(C)S(=O)(=O)c1ccccc1	.	.	24	.	.	0	4	-6&7
COc1cccc(C(=O)Nn2cnnc2)c1OC	-7	-6	14	i	0	-4	-1	-14
O=C(/C=C/c1ccc([N+](=O)[O-])cc1)NCC1CCCO1 (centres undefined)	-4	0	.	i	-2	2	4	.
Cn1c(=O)n(Cc2ccccc2F)c2ccccc21	0	0	-24	i	.	-3	1	-12
CCOCCOc1cccc(C(=O)NC(C)c2ccc3ccccc3c2)c1 (centres undefined)	-7	-2	-14	i	-4	7	-3	-12
Clc1ccc(OCCCNCc2ccccc2)c2ccccc12	2	-9	30	.	110*	1	4	-9
O=C(COc1ccc2c3c(c(=O)oc2c1)CCC3)N[C@@H](CSCc1ccccc1)C(=O)O	1	-3	.	i	-11	2	3	-20
Cn1cnc([N+](=O)[O-])c1Sc1ccc(Br)cc1	2	-7	-23	i	11	-2	-3	-7
COc1ccc(C)cc1S(=O)(=O)N(CC(=O)NCc1ccc(Cl)cc1)Cc1ccccc1	-7	-1	?	i	2	-12	-17	-10
O=C(CNC(=O)c1ccc(Cl)cc1)OCc1nc2ccccc2s1	-18	16	-1	i	-3	-3	0	.
CCOc1ccc(-c2c(C)n([O-])c3c([n+]2=O)CCCC3)cc1	-2	-4	.	i	-6	1	4	15
(listing goes on)
SMILES	eIF4H FP inh	PABP FP inh	HIV Env fusion	Rce1 inhib	CSC inhib	MT1-MMP act inh	MT1-MMP act inh RFP	UUG fidelity	others
CCN(CC)c1ccc(/C=N/N=C(N)N)c(O)c1	-14	-15	-143	i	66	3	0	.
CCOC(=O)c1cnc2ccc(Cl)cc2c1Nc1ccc(S(=O)(=O)Nc2ncccn2)cc1	5	5	.	i	19	0	2	-19
CCCCC1=CC2=CC(=O)C(C)(OC(=O)CC)C(=O)C2=CN1CCCCO (centres undefined)	62	36	-4	i	-19	2	5	-25	eIF4H FP inh retest=22;PABP FP inh retest=37
CC1(C(=O)O)CCC(C(N)=O)C1(C)C (centres undefined)	-1	-14	-2	i	-7	-4	0	.
O=C(Nc1ccccc1)C1CCN(C(=O)c2ccc(Br)cc2)CC1	-11	-5	.	i	0	1	3	4
CC(C)(C)c1ccccc1NC(=O)c1c(O)c2cccc3c2n(c1=O)CC3	-9	-5	.	i	39	.	.	.
CCN(CC)S(=O)(=O)c1cccc(C(=O)Nc2nc3cc4c(cc3s2)OCCO4)c1	-4	-10	62*	i	39	1	-19	-11
CC(C)(C)c1nc2c(s1)CCc1onc(-c3ccc(Cl)cc3)c1-2	.	.	3	i	-3	8	4	-17
N#CCCN(Cc1ccccc1)C(=S)Nc1ccc(F)cc1	-9	5	21	i	2	-1	-1	-8
COc1cc(/C=C/C(=O)OCC(=O)Nc2cc(C(F)(F)F)ccc2N2CCOCC2)ccc1O	3	-5	16	i	18	0	-6	-25
C[C@H](CO)N1C[C@H](C)[C@@H](CN(C)Cc2ccncc2)Oc2ccc(NC(=O)CCCCCC(=O)Nc3ccccc3N)cc2C1=O	.	.	23[16.7 µM]	.	-20	2	2	1&-5
S=c1[nH]nc(CCc2nc3ccccc3[nH]2)n1-c1cccc(Cl)c1	-10	-10	-7	i	.	0	-2	.
O=c1c2cc(NC(=S)NCCCN3CCC(Cc4ccccc4)CC3)ccc2nc2n1CCCCC2	-3	-7	19	i	101*	6	-11	-19
CC(C)C[C@H]1COCCS(=O)(=O)N1Cc1cccc(C(F)(F)F)c1	.	.	20	i	8	-1	-3	0
Cc1cc(C)c(S(=O)(=O)N(C)CC(=O)NCCN2CCOCC2)c(C)c1	0	2	13	i	16	0	-1	20
COc1ccc2c(c1)CCC1C2=NN(/C(C)=C/C(C)=O)C1c1cccc(F)c1 (centres undefined)	-4	10	5	i	19	-5	-2	-12
COc1ccccc1NC(=O)Nc1nnc([C@@H]2C[C@H](O)[C@@H](CO)O2)s1	.	.	i	.	.	1	6	-14
CC1(C)C(=O)NCCN1C(=O)CCCC(=O)O	-10	-4	6	i	8	4	5	.
Cc1ccc(-c2csc(NC(=O)c3cccs3)n2)cc1	5	-4	.	i	11	-22	-28	-17
COC(=O)c1c(NS(=O)(=O)c2ccc3ccccc3c2)sc2c1CCCC2	3	8	-12	i	47	-46	5	-8
COc1ccc(S(=O)(=O)N2CCOCC2)cc1C(=O)NC1CCCCCC1	.	.	10	.	.	5	3	-18
CSc1c(CC(=O)Nc2ccccc2Cl)n(Cc2ccccc2)c2ccccc12	6	2	.	i	9	-13	-17	-4
O=C(Nc1ccc(F)c(Cl)c1)c1cc(C2CCCN(S(=O)(=O)c3ccccc3)C2)on1 (centres undefined)	.	.	31	.	.	1	-9	-11
CCOc1ccccc1Nc1nc(N)nc(CN(C)C2CCCCC2)n1	-3	-7	46	.	3	0	1	-10
Cc1ccc2c(c1)N(CCC(=O)NC1CCCCC1C)C(=O)CO2 (centres undefined)	37	5	-3	i	-9	-2	0	-17

Three records drawn at random from the list so far, as already listed:
SMILES	eIF4H FP inh	PABP FP inh	HIV Env fusion	Rce1 inhib	CSC inhib	MT1-MMP act inh	MT1-MMP act inh RFP	UUG fidelity	others
CC(C)(C)c1nc2c(s1)CCc1onc(-c3ccc(Cl)cc3)c1-2	.	.	3	i	-3	8	4	-17
COc1ccc2c(c1)CCC1C2=NN(/C(C)=C/C(C)=O)C1c1cccc(F)c1 (centres undefined)	-4	10	5	i	19	-5	-2	-12
CC1(C(=O)O)CCC(C(N)=O)C1(C)C (centres undefined)	-1	-14	-2	i	-7	-4	0	.

(next part)
SMILES	eIF4H FP inh	PABP FP inh	HIV Env fusion	Rce1 inhib	CSC inhib	MT1-MMP act inh	MT1-MMP act inh RFP	UUG fidelity	others
COc1ccc(/C=N/NC(=O)C2(C)NC(C)(C)Cc3ccccc32)cc1 (centres undefined)	-9	4	21	.	-10	-1	-1	.
CCOC(=O)/C(C#N)=C1\Nc2ccccc2N=C1N(CC(C)C)CC(C)C	50	46	7	i	?	.	.	-12	eIF4H FP inh retest=-8;PABP FP inh retest=2
CC(C)NC(=S)N1CCN(C/C=C/c2ccccc2)CC1	-8	2	5	i	17	0	1	-1
CCc1nc(NCCCn2ccnc2)c2oc3ccccc3c2n1	-14	20	.	i	-2	-4	-5	-3
O=C(COC(=O)COc1ccccc1)NC1CCCc2ccccc21 (centres undefined)	-7	10	-11	i	-13	1	6	-3
O=c1cc(CN2CCN(S(=O)(=O)c3ccccc3[N+](=O)[O-])CC2)nc2sccn12	7	-4	9	i	-11	-2	3	-1
CCN(Cc1ccncc1)C(=O)Cc1cccs1	-12	2	-6	i	-2	0	2	-7
CCCCn1c(N)c(N(CCOC)C(=O)CCCc2cccs2)c(=O)[nH]c1=O	.	.	.	i	-7	-1	2	.
O=C(Nc1nncs1)C1CC(=O)N(C2CCCC2)C1 (centres undefined)	-4	-2	1	i	-9	-1	4	-2
Cc1ccc(C(=O)N2CCC(C(=O)NCc3cccnc3)CC2)cc1	-2	20	-22	i	.	-4	-6	-21
O=C(NNc1ncnc2c1cnn2-c1ccc(F)cc1)c1ccco1	3	9	-14	i	-19	4	5	-8
COc1ccccc1NS(=O)(=O)c1cccc(C(=O)N2CCN(C/C=C/c3ccccc3)CC2)c1	6	28	13	i	-1	-3	-6	-1
O=C(CN1C(=O)c2cccnc2Oc2ccc(Cl)cc21)NC1CCCC1	-18	-3	7	i	1	-3	-2	0
CCOC(=O)CN1C(c2ccccc2O)Nc2ccc(Br)cc2C1c1ccccc1 (centres undefined)	6	4	10	i	.	-8	-11	.
Cc1c(C)n(CC(O)CNc2ccccc2)c2ccccc12 (centres undefined)	3	19	24	i	17	-1	1	.
COc1ccc(Cl)cc1NC(=O)N1CCC(C)CC1	5	2	-4	i	.	-4	0	.
N/C(CC(=O)Nc1cccc(C(F)(F)F)c1)=N/O	-3	3	2	i	-9	3	4	-28
CCCNC(=O)CS(=O)Cc1nc(-c2ccc(OC)cc2)oc1C (centres undefined)	-8	2	.	i	.	-3	1	0
COc1ccc(NS(=O)(=O)c2cccc(C(=O)Nc3cccc(C(=O)O)c3)c2)cc1	0	4	-4	i	-7	1	2	-19
OCC1OC(n2cnc3c(SCc4ccccc4)nc(NO)nc32)C(O)C1O (centres undefined)	.	.	27	.	.	-2	3	-22
O=C(NC1CC1)c1nc(Cn2ccc([N+](=O)[O-])n2)no1	4	9	-2	.	2	2	6	.
O=C(O)CC1S/C(=N\N=C2CCCCCCC2)N(c2ccccc2)C1=O (centres undefined)	4	-4	-3	i	-9	-1	0	.
CC(C)CC(NC(=O)CCl)c1ccccc1 (centres undefined)	-6	-2	14	i	-5	1	-1	-10
OCC1(CCOc2ccccc2)CCN(Cc2cn[nH]c2-c2ccc(F)cc2)CC1	-8	3	-10	i	1	4	4	-17

A portion of the library. The share of hits here may be higher or lower than overall.
